Screens from PubChem.
RGS16-Gao = regulators of human RGS16-Galphao interaction; O15492+P09471; binding response (% of control), % at 10 µM; 220,000 compounds, 0.38% hits; bead-based flow cytometry RGS16-Galphao binding, fluorescence; actives lie on both sides;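 active means below 25% or above 175%, edge rows of some plates excepted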;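 further: Galphao activated by GDP with aluminum fluoride before binding; 100% = wells without compound and 0% = beads without RGS; some results beyond the cut were filed as inactive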
Target sequence (O15492 whole entry, looked up): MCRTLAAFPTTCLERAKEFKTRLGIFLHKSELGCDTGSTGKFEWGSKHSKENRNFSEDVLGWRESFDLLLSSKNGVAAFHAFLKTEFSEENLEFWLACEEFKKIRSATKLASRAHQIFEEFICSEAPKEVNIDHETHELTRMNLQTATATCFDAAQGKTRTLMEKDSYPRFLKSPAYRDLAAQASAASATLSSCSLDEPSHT
Target sequence (P09471 whole entry, looked up): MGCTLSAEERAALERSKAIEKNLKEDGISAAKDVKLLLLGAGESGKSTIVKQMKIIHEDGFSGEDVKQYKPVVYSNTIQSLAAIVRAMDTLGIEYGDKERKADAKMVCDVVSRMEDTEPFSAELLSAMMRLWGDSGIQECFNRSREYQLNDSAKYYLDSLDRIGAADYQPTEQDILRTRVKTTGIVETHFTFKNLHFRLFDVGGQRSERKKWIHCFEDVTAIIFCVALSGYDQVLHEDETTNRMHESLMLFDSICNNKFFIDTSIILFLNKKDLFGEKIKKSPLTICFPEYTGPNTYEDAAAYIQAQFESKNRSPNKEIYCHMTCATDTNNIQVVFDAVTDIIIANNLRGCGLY
HSV augment = HSV replication enhancement | HSV replication augmentation in cells, fold increase | maximum fold increase | 220,000 compounds, 0.005% hits;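 active means peak rise of 1.5-fold or more in the series; tested in PC3 cells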;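 further: first round at 10 µM; read as green reporter fluorescence; hits show the peak of a series up to 25 µM; 1 = signal of infected wells without compound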
GALR2 ag = GALR2 (human) receptor agonism | AID 803 | 140,000 compounds, 0.48% hits | O43603 | activation, %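 (tested at 5 µM)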 | GALR2-expressing cells, agonist activation read-out;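 active means above mean plus 3 SD of all compounds, about 5% in these data, not always enough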;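 further: 0% = vehicle buffer wells and 100% = reference agonist at full effect; tested in CHO reporter cells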
Target sequence (O43603 whole entry, looked up): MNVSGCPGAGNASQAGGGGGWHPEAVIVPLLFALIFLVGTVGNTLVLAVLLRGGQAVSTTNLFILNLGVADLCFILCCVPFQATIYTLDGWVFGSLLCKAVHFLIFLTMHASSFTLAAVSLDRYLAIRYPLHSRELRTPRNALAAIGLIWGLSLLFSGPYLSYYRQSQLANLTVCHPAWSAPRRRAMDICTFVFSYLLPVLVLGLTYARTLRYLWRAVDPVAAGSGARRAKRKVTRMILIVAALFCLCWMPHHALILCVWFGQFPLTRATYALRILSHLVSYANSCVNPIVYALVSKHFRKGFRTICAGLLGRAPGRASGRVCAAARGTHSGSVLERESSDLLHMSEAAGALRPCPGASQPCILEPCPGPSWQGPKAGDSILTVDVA
INS promoter inh = TRM-6 insulin promoter activity inhibition | TRM-6 cells (human fetal islet line), insulin promoter-eGFP reporter, imaging; reporter expression induced with tamoxifen | 130,000 compounds, 0.9% hits | inhibition, % at 2 µM | AID 1273;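 active means inhibition above the mean plus 3 SD, with well images judged a real hit on visual review, cut at about 60% in these data, passing the limit was not always enough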
PKD1 inh = inhibitors of human PKD1 kinase | AID 797 | inhibition, %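 (about 10 µM by stock and volumes)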 | PKD1 kinase fluorescence polarization assay | 200,000 compounds, 0.056% hits;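 active means inhibition of 50% or more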;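 further: controls were vehicle for no effect and a reference inhibitor for full effect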
INS promoter inh cell count = also measured in INS promoter inh; calls as there; normalized cell count, %; measured here: cell count, toxicity; reference of the scale not given here;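 cells exposed to compound for 48 h; stained nuclei by imaging scaled within each plate; lower means fewer cells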
HSV augment primary fold = further read-out of HSV augment, marked with its call; fold increase; compound at 10 µM; measured here: primary screen fold increase 10 uM; tested in PC3 cells;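 GFP signal in the first replicate; 1 = infected wells without compound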
Active calls of the source: *; i = inactive; . = not tested or not shown.

SMILES | RGS16-Gao | HSV augment | HSV augment primary fold | GALR2 ag | INS promoter inh | INS promoter inh cell count | PKD1 inh
COc1ccc(C)cc1NC(=O)C1CCCN1C(=O)OCc1ccccc1 (centres undefined) | 110 | i | 1.1 | -1.6 | . | . | -5
CCCCNC(=O)c1ccccc1NC(=O)CCSc1ccccc1 | 103 | i | 1.1 | -0.5 | 7 | 71 | -8
COc1ccc(C(=O)O/N=C2\CCCc3nonc32)cc1 | 102 | i | 0.99 | -0.2 | . | . | -11
CC(=O)NCCCNc1ccc([N+](=O)[O-])cc1 | 115 | . | . | -1.2 | 8 | 102 | -3
Cc1ccc(-c2nc(C(F)(F)F)cc(=O)[nH]2)cc1 | 101 | i | 1.1 | . | . | . | .
Cc1nc2cc(N)ccc2n1-c1ccccc1 | 99 | i | 0.94 | . | . | . | -6
Cc1cc(=O)[nH]c(N/N=C/c2c(C)nn(-c3ccc(F)cc3)c2Cl)n1 | 104 | i | 0.98 | . | -28 | 79 | -3
CN(C)c1ncnc2c1NC1=C(S2)C(=NCCCC(=O)O)CC(C)(C)C1 | 98 | i | 1.1 | 0.8 | 0 | 120 | -2
CCOC(=O)N1CCN(C(=O)CN(C2CCCCC2)S(=O)(=O)c2c(C)cc(C)cc2C)CC1 | 98 | i | 0.83 | -2.7 | -75 | 91 | -6
O=C(NCCCl)C1Cc2c(ccc3ccccc23)O1 (centres undefined) | 105 | i | 0.87 | . | -3 | 78 | -10
Cc1nc(N2CCOCC2)nc(N2CCCCC2C)c1[N+](=O)[O-] (centres undefined) | 99 | i | 0.92 | . | . | . | .
CCOC(=O)c1sc(=NC(=O)COc2ccccc2)n(C)c1C | 101 | i | 0.93 | . | -58 | 122 | -2
CCOc1ccc(N2C(=O)CC(NNc3nc4ccccc4s3)C2=O)cc1 (centres undefined) | 93 | i | 0.99 | . | . | . | .
CCOC(=O)C1=C(C)S/C(=C\N(C)C)C1=O | 102 | i | 1.1 | -3.1 | 27 | 117 | 2
COC(=O)NC1CCC(NC(=O)OC)CC1 (centres undefined) | 104 | i | 0.99 | -0.4 | -33 | 99 | -4
Cc1ccc(S(=O)(=O)NC2=C(N3CCN(Cc4ccccc4)CC3)C(=O)c3ccccc3C2=O)cc1 | 100 | . | . | 0.0 | 50 | 71 | -13
O=S(=O)(Cc1ccccc1)NCC1CCCO1 (centres undefined) | 103 | i | 1.2 | -2.4 | . | . | -4
Cn1c(=O)cc(SCC(=O)NCCCN2CCN(c3ccccc3F)CC2)c2ccccc21 | 106 | i | 0.96 | -2.6 | . | . | -1
CCOC(=O)CCCCC(=O)c1[nH]c(=O)[nH]c1CSCCO | 112 | i | 1.1 | -3.0 | 62 | 131 | 1
CCN(CC)C(=O)Cn1nc(C)c2ccccc2c1=O | -15 | i | 0.84 | -0.2 | 31 | 134 | -1
CCc1nnc(NS(=O)(=O)c2ccc(NC(=S)Nc3ccc(F)cc3)cc2)s1 | 129 | i | 0.93 | -0.3 | 41 | 167 | -15
CSCC(=O)N1CCCC(CNC(=O)c2ccc(-c3ccccc3)cc2)C1 (centres undefined) | 104 | i | 0.88 | . | . | . | 2
C/C(=N\NC(=O)C1CC1c1ccccc1)c1cccs1 (centres undefined) | 108 | i | 0.99 | -1.5 | 6 | 109 | -4
O=C(OC1CCOC1=O)c1ccc(S(=O)(=O)N2CCCCCC2)cc1 (centres undefined) | 97 | i | 0.76 | -0.7 | -24 | 222 | -7
CC(=O)/C(=N\Nc1ccc(Cl)cc1Cl)Sc1cccc2cccnc12 | 86 | i | 0.52 | -1.8 | 35 | 74 | 0

2 records picked at random from those above, as already listed:
SMILES | RGS16-Gao | HSV augment | HSV augment primary fold | GALR2 ag | INS promoter inh | INS promoter inh cell count | PKD1 inh
CCOC(=O)CCCCC(=O)c1[nH]c(=O)[nH]c1CSCCO | 112 | i | 1.1 | -3.0 | 62 | 131 | 1
CCOC(=O)c1sc(=NC(=O)COc2ccccc2)n(C)c1C | 101 | i | 0.93 | . | -58 | 122 | -2

Continuation:
SMILES | RGS16-Gao | HSV augment | HSV augment primary fold | GALR2 ag | INS promoter inh | INS promoter inh cell count | PKD1 inh
CC(C)N1CCN(Cc2cccc3nonc23)CC1CCO (centres undefined) | 111 | i | 0.98 | . | . | . | 0
Clc1ccc2nc(C3CCN(Cc4nnnn4C4CCCCC4)CC3)[nH]c2c1 | 95 | i | 0.97 | -0.6 | -14 | 161 | 6
COc1cccc(C(=O)C2CCCN(C(=O)CCc3scnc3C)C2)c1 (centres undefined) | 110 | i | 1.1 | . | . | . | -4
COc1cccc(/C=N/n2c(C)nc3ccccc3c2=O)c1O | 97 | i | 0.92 | -2.0 | 7 | 90 | 0
CCOC(=O)C1CCN(C(=O)c2sc3nc(-c4ccccc4)cn3c2C)CC1 | 106 | . | . | 0.2 | . | . | -2
Cc1cc(=O)oc2cc(OCC3CC(c4ccccc4Cl)=NO3)ccc12 (centres undefined) | 98 | i | 0.62 | 0.1 | -31 | 99 | -1
Cc1[nH]n(-c2ccc(Cl)cc2)c(=O)c1C(=O)c1ccccc1 | 109 | i | 0.96 | . | 0 | 99 | 0
COc1ccc(C(CC(=O)N2CCCC2)c2c(OC)cc(OC)c3ccc(=O)oc23)cc1 (centres undefined) | 96 | i | 0.94 | . | . | . | .
COc1cc(N=Nc2ccccc2C(=O)O)ccc1O | 95 | i | 0.92 | . | . | . | .
O=C(NC1CCCCCC1)C1C2C=CC3(CN(Cc4cccnc4)C(=O)C13)O2 (centres undefined) | 104 | i | 0.98 | -0.1 | . | . | -8
CCCn1c2ccc(/C(C)=N\O)cc2c2cc(/C(C)=N/O)ccc21 | 93 | i | 0.81 | -0.5 | -5 | 213 | -4
CCOC(=O)N1CCN(C(=O)C2CCN(Cc3ccc(OC)cc3OC)CC2)CC1 | 92 | i | 0.95 | -1.3 | 36 | 76 | 0
COc1ccc(NC(=O)c2ccccc2SC)cc1OC | 105 | i | 0.79 | 0.4 | 0 | 114 | 5
CCCNS(=O)(=O)c1ccc(CCC(=O)N2CCN(c3ccc(F)cc3)CC2)cc1 | 102 | i | 0.94 | -0.6 | -61 | 133 | -8
CC(C)(NO)/C(=N/O)c1ccc(Br)cc1 | 100 | i | 1.2 | -2.6 | -53 | 76 | -2
O=C(NC(=S)N(Cc1ccccc1)Cc1ccccc1)c1ccccc1F | 109 | i | 0.74 | -2.5 | 31 | 102 | -6
O=C(NCCCN1CCOCC1)c1cc2ccccc2oc1=O | 102 | i | 0.99 | -1.4 | -7 | 157 | 9
COc1cc2c(cc1OC)C(c1ccccc1)N(C(=O)c1ccco1)CC2 (centres undefined) | 108 | i | 0.78 | . | . | . | 0
O=C(Nc1ccccc1)N1CCC(C(=O)N2CCN(c3ccccc3F)CC2)CC1 | 57 | i | 1 | . | -100 | 81 | 3
CCOC(=O)c1ccc(NC(=O)CC2NCCNC2=O)cc1 (centres undefined) | 99 | i | 1 | -0.9 | -26 | 86 | -8
CC/C(=N\NC(=O)c1ccoc1C)c1ccc(C)o1 | 104 | i | 0.96 | -0.2 | 0 | 171 | -8
CC(C)c1nc(N2CCOCC2)c(C#N)c2c1CCCC2 | 103 | i | 0.78 | -0.7 | . | . | -6
CSc1ccccc1C(=O)NCc1ccc(F)cc1 | 97 | i | 0.99 | . | . | . | 74*
CCc1cc(C(c2ccccc2OC)N2CCOCC2)c(NC(=O)c2ccccc2)s1 (centres undefined) | 102 | i | 0.95 | -2.1 | . | . | 15
CCCCOc1ccccc1C1NC(=O)NC(C)=C1C(=O)OCc1ccco1 (centres undefined) | 98 | i | 0.92 | -0.5 | . | . | -4

(cont.)
SMILES | RGS16-Gao | HSV augment | HSV augment primary fold | GALR2 ag | INS promoter inh | INS promoter inh cell count | PKD1 inh
COc1cc(OC)c(NC(C)C(=O)N2CCCC2)cc1Cl (centres undefined) | 100 | i | 1 | . | . | . | 7
CN1C(=O)C(O)(CC(=O)c2ccc3c(c2)OCO3)c2ccccc21 (centres undefined) | 99 | i | 0.72 | -0.1 | 33 | 154 | 1
Cc1cc(C)cc(NC(=O)Nc2ccc3ccccc3n2)c1 | 99 | i | 0.93 | . | . | . | .
CC(Nc1nc(N2CCCCC2)nc2ccccc12)c1ccccc1 (centres undefined) | 96 | i | 0.65 | -1.8 | -71 | 163 | -2
COC(=O)c1ccccc1NC(=O)CN1CCN(C23CC4CC(CC(C4)C2)C3)CC1 | 97 | i | 0.82 | -1.2 | . | . | -3
COCCCNC(=O)c1nc2c(nnn2Cc2cc(C)ccc2C)c(=O)[nH]1 | 89 | . | . | -1.0 | 17 | 107 | 1
O=C(CNCCC1=CCCCC1)Nc1ccc(N2CCCCCC2)cc1 | 105 | i | 0.71 | 1.5 | -22 | 96 | -4
CCOC(=O)N1CCC2(CC1)NCCc1c2[nH]c2ccccc12 | 98 | i | 0.96 | . | . | . | .
CCN(CC)c1ccc(/C=N/Nc2nn[nH]n2)cc1 | 106 | i | 1.2 | . | . | . | .
O=C(Nc1ccc(Cl)c(Cl)c1)OCc1cncs1 | 99 | i | 0.98 | -0.6 | 39 | 53 | 3
Cn1cc(C(=O)N/N=C/C2=C(N3CCOCC3)C(=C\c3ccccc3)/CC2)ccc1=O | 94 | i | 0.8 | -0.2 | 13 | 92 | -2
CCN(CC)c1ccc(S(=O)(=O)N(CC)CC)cc1NC(=O)C1CCCC1 | 97 | i | 0.99 | . | . | . | 0
CCn1c(COc2cccc(C)c2C)nnc1SCC(=O)Nc1cc(C)on1 | 103 | i | 0.99 | . | -39 | 86 | -2
O=C(N/N=C/c1ccc([N+](=O)[O-])s1)C(O)c1ccccc1 (centres undefined) | 95 | i | 0.78 | 0.3 | -18 | 100 | -11
N#CC1=C(SCc2ccccc2)NC(=O)CC1c1ccccc1 (centres undefined) | 44 | i | 0.91 | -3.3 | -56 | 40 | -4
CCOc1ccccc1OCCC(=O)Nc1ccc(F)c(Cl)c1 | 80 | i | 1 | -2.0 | 54 | 115 | -13
CCC/C(=N\NC(=O)c1ccccc1C)c1ccccc1 | 106 | i | 1 | -0.7 | 8 | 87 | -18
CCOC(=O)c1oc2c(C)c(O)ccc2c(=O)c1-c1nncn1-c1ccccc1 | 103 | i | 1 | 0.0 | 36 | 140 | 0
C#Cc1ccc([C@@H]2C=C(C(=O)N3CCOCC3)O[C@H](OCCCCO)C2)cc1 | 99 | i | 0.83 | . | . | . | 9
COc1ccc(CCNC(=O)CSc2nnc(CNC(=O)c3ccco3)o2)cc1OC | 106 | i | 1.1 | 0.1 | -8 | 120 | 5
CN(c1cccc(NC(=O)Cc2ccccc2)c1)S(C)(=O)=O | 95 | i | 0.96 | -2.0 | 0 | 66 | 2
CN(C)c1[nH]c(=O)c(C#N)c2c1CCN2Cc1ccccc1 | 106 | i | 1 | 1.5 | 57 | 111 | -1
N/C(=N\OC(=O)Nc1ccccc1)c1ncc(C(F)(F)F)cc1Cl | 104 | i | 0.94 | -1.7 | 29 | 108 | -1
CCC1CCCCN1c1ccc([N+](=O)[O-])cc1/C=N/NC(=O)Cn1c2ccccc2c(=O)c2ccccc21 (centres undefined) | 100 | i | 0.75 | -1.2 | 3 | 114 | 1
O=C(Cc1ccccc1)NNC(=O)c1ccc(NC(=O)c2ccccc2)cc1 | 99 | i | 1.1 | . | . | . | 4
Cc1ccc(OCCCSc2n[nH]c(N)n2)cc1 | 103 | i | 1 | . | . | . | 0
Cc1cc(C)nc(SCc2nnc(SCC(=O)Nc3cc(C(F)(F)F)ccc3Cl)o2)n1 | 98 | i | 0.88 | -2.6 | . | . | -18
O=C(N/N=C/c1c[nH]c2ccc(Br)cc12)C1CC1 | 112 | i | 0.98 | . | . | . | .
Cc1nnc(SCC(=O)N2CCN(S(=O)(=O)c3ccc(Cl)cc3)CC2)[nH]c1=O | 82 | i | 0.97 | -0.7 | -7 | 79 | -5

An excerpt of these results, as tab-separated lines:
canonical_smiles	RGS16-Gao	HSV augment	HSV augment primary fold	GALR2 ag	INS promoter inh	INS promoter inh cell count	PKD1 inh
COc1cc(OC)c(NC(C)C(=O)N2CCCC2)cc1Cl (centres undefined)	100	i	1	.	.	.	7
CN1C(=O)C(O)(CC(=O)c2ccc3c(c2)OCO3)c2ccccc21 (centres undefined)	99	i	0.72	-0.1	33	154	1
Cc1cc(C)cc(NC(=O)Nc2ccc3ccccc3n2)c1	99	i	0.93	.	.	.	.
CC(Nc1nc(N2CCCCC2)nc2ccccc12)c1ccccc1 (centres undefined)	96	i	0.65	-1.8	-71	163	-2
COC(=O)c1ccccc1NC(=O)CN1CCN(C23CC4CC(CC(C4)C2)C3)CC1	97	i	0.82	-1.2	.	.	-3
COCCCNC(=O)c1nc2c(nnn2Cc2cc(C)ccc2C)c(=O)[nH]1	89	.	.	-1.0	17	107	1
O=C(CNCCC1=CCCCC1)Nc1ccc(N2CCCCCC2)cc1	105	i	0.71	1.5	-22	96	-4
CCOC(=O)N1CCC2(CC1)NCCc1c2[nH]c2ccccc12	98	i	0.96	.	.	.	.
CCN(CC)c1ccc(/C=N/Nc2nn[nH]n2)cc1	106	i	1.2	.	.	.	.
O=C(Nc1ccc(Cl)c(Cl)c1)OCc1cncs1	99	i	0.98	-0.6	39	53	3
